Screens (PubChem BioAssay)
VDR inhibitor: inhibitors of human vitamin D receptor; VDR-SRC2-3 peptide fluorescence polarization, 2 h; Potency, µM, without a hit: max response, negative = inhibition, actives largely listed as inhibitors; 0.93% of 400,000 active; AID 504847; active means well fitted inhibition curve with a large enough effect; inconclusive means small, poorly fitted or top-dose-only effect, or another doubt; inactive means no such curve, though single readings can be large or run the other way; further: series mostly up to about 120 µM
Target sequence (P11473 whole entry, looked up): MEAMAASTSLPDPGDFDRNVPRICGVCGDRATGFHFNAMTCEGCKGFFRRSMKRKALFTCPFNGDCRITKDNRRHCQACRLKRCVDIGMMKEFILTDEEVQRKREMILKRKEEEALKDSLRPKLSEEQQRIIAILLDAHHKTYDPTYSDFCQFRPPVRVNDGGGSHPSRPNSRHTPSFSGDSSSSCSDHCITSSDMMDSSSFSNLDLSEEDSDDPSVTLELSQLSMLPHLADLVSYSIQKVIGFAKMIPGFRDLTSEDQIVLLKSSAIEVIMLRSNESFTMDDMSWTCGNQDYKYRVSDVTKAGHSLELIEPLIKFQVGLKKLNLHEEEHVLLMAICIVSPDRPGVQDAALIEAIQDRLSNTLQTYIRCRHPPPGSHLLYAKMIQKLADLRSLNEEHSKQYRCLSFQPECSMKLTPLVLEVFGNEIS
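Fluorescence polarization assay of small-molecule disruption of VDR binding to coregulator peptide SRC2-3. Compounds and controls pin-transferred, then read after 2 h incubation at ambient room temperature.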
Active calls of the source: *; ? = inconclusive; & = joins results of further samples. On the % scale 0 is the no-effect control and ±100 the full control effect; potency means the concentration at half of the fitted maximal effect. Some of the compounds tested, so the mix of outcomes need not match the whole.

| VDR inhibitor | SMILES |
| --- | --- |
| -19% | COc1ccc(C(=O)NCC(=O)NCC(c2ccco2)N(C)C)cc1OC (centres undefined) |
| 7% | O=C(Nc1ccc(N2CCCC2)cc1)c1ccccc1F |
| 6% | Cc1ccc(CCNC(=O)c2ccc(CNS(=O)(=O)c3ccc(C)cc3)cc2)cc1 |
| 10% | Cc1cccc(C)c1NC(=O)CSc1nc2ncccc2o1 |
| -5% | O=C(N[C@@H](Cc1ccccc1)C(=O)OCc1ccccc1)c1nc[nH]c1C(=O)N1CCN(c2ccccc2)CC1 |
| -26% | COCCN1C(=O)N[C@@H](CCc2ccccc2)[C@H](C(=O)OC)[C@H]1C |
| -2% | CN(CCc1nc2ccccc2[nH]1)Cc1nc(CC2CC2)no1 |
| -8% | Cc1cc(NC(=O)c2ccc(Cl)cc2)ccc1NC(=O)c1ccccc1Cl |
| 2% | Cc1ccc(NC(=O)CSc2nc3ccccc3c(=O)n2CCCC(=O)NCCCN2CCOCC2)cc1 |
| 11% | CSc1ncccc1C(=O)OCC(=O)c1cccc(Br)c1 |
| ? | O=C1OC(c2ccco2)=N/C1=C\c1ccc(-c2cccc(C(F)(F)F)c2)o1 |
| 22% | COc1ccc(-c2cc(=O)oc3cc4occ(C)c4cc23)cc1 |
| 2% | CN(CC(=O)NCC(c1ccccc1)N1CCCC1)S(=O)(=O)c1ccc(Cl)cc1 (centres undefined) |
| -22% | O=C(NCCn1ccc2ccccc21)c1ccc(Cl)cc1 |
| 0% | Cc1ccccc1/C=N/NC(=O)Cn1cnc([N+](=O)[O-])n1 |
| 5% | COc1ccc(-c2cn3nc(N4CCC(C(=O)Nc5ccccc5OC)CC4)sc3n2)cc1 |
| 5% | CCC(CC)c1nnc(NC(=O)CN2C(=O)c3ccccc3C2=O)s1 |
| -10% | O=C1C2C3C=CC(C3)C2C(=O)N1Nc1ccc([N+](=O)[O-])cc1[N+](=O)[O-] (centres undefined) |
| 7.1µM* | C=C1C(=O)[C@]23[C@H](O)[C@H]1CC[C@H]2[C@@]12COC3(O)[C@H](O)[C@@H]1C(C)(C)CC[C@@H]2O |
| -12% | O=C(NC(Cc1c[nH]c2ccccc12)C(=O)N/N=C/c1ccc(Br)cc1)c1cccs1 (centres undefined) |
| 12% | COc1ccc(CNC(=O)c2cc(-c3ccc(C)cc3)nc3n[nH]c(-c4ccc(Br)cc4)c23)cc1 |
| 6% | CC(C)Cn1nnnc1S(=O)(=O)Cc1ccccc1 |
| 0% | Cc1nn(-c2ccc(F)cc2)c(Cl)c1/C=N/NC(=O)c1ccc(O)cc1 |
| -13% | COc1ccc(C(C(=O)Nc2ccc(C(C)C)cc2)N(C)C(=O)Cc2cccs2)cc1 (centres undefined) |
| -23% | COc1ccccc1N1CC(C(=O)Nc2cccc(C(=O)O)c2)CC1=O (centres undefined) |
| 5% | Cc1cccc(C(=O)Nc2nnc(SCC(=O)NC3CC3)s2)c1 |
| 0% | COc1ccc(S(=O)(=O)NCC2CCCN(Cc3ccc(C)o3)C2)cc1 (centres undefined) |
| 0% | O=[N+]([O-])c1ccc(N2CCN(c3ccc(F)cc3)CC2)cc1 |
| ? | Cc1nc([N+](=O)[O-])c(Sc2nc3ccccc3n2C)n1Cc1ccccc1 |
| -11% | NS(=O)(=O)c1ccc(CCNC(=O)C2CCCCN2S(=O)(=O)c2ccccc2)cc1 (centres undefined) |

A different layout for some results above.
SMILES: CC(C)Cn1nnnc1S(=O)(=O)Cc1ccccc1
  VDR inhibitor = 6%

SMILES: Cc1nn(-c2ccc(F)cc2)c(Cl)c1/C=N/NC(=O)c1ccc(O)cc1
  VDR inhibitor = 0%

Later entries.
| VDR inhibitor | SMILES |
| --- | --- |
| -10% | O=C(O)C1C2C=CC(C2)C1C(=O)NCCC1=CCCCC1 (centres undefined) |
| 0% | CCN(CC)S(=O)(=O)c1cccc(NC(=O)COC(=O)c2ccc(Br)o2)c1 |
| -8% | CCOc1ccc(N2C(=O)C3C(c4ccc(O)cc4)NC(CCSC)(C(=O)OC)C3C2=O)cc1 (centres undefined) |
| -10% | COc1ccc(OCc2cc(C(=O)N(C)C(C)c3ccon3)no2)c(Cl)c1 (centres undefined) |
| -14% | Cc1cc(NC(=O)COC(=O)CC2CCCC2)c([N+](=O)[O-])cc1C |
| 9% | COc1cccc(OC)c1OC(=O)C1CC(=O)N(c2ccc3c(c2)OCCO3)C1 (centres undefined) |
| -15% | CCCCSc1nnc(-c2ccccc2)c2ccccc12 |
| 0% | COc1ccccc1CNC(=O)CN1C(=O)CSc2ccc(S(=O)(=O)N3CCCCC3)cc21 |
| 1% | Cc1ccc(NC(=O)CCC(=O)NCCO)cc1 |
| 3% | Cc1ccsc1C(=O)Nc1cc(Cl)ccc1-n1cncn1 |

By substructure: the entries above with a COOH group
| VDR inhibitor | SMILES |
| --- | --- |
| -23% | COc1ccccc1N1CC(C(=O)Nc2cccc(C(=O)O)c2)CC1=O (centres undefined) |
| -10% | O=C(O)C1C2C=CC(C2)C1C(=O)NCCC1=CCCCC1 (centres undefined) |

The listing continues:
| VDR inhibitor | SMILES |
| --- | --- |
| -11%&-13%&3% | OCC1OC(n2cnc3c(NCc4ccco4)ncnc32)C(O)C1O (centres undefined) |
| 8% | O=C(CSc1n[nH]c(-c2ccncc2)n1)Nc1ccc(Cl)c(C(=O)O)c1 |
| 9% | COCCSc1ccccc1C(=O)N1CCN(c2ccccc2)CC1 |
| -5% | COc1ccc(C=CC(O)CCN2CCC3CCC(C3)C2)cc1 (centres undefined) |
| -5% | CCCCC(=O)Nc1ccc(C)c(O)c1 |
| -9% | Cn1c(C(=O)O)ccc1S(=O)(=O)N(Cc1ccccc1)Cc1ccccc1 |
| -17% | COC(=O)C1=COC(OC2OC(CO)C(O)C(O)C2O)C2C1C=CC2(O)CO (centres undefined) |
| -15% | O=C(c1cc2c(s1)-c1ccccc1OC2)N1CCc2ccccc2C1 |
| -9% | Cc1cccc(OCCSc2nc3ncnc(N)c3[nH]2)c1 |
| 17% | COc1cccc(C2CC(c3c(-c4ccccc4)c4cc(Cl)ccc4[nH]c3=O)=NN2S(C)(=O)=O)c1OC (centres undefined) |
| -12% | COc1ccc(CCOC2OC(CO)C(OC(=O)/C=C/c3ccc(O)c(OC)c3)C(O[C@H]3O[C@@H](C)[C@H](O)[C@@H](O)[C@H]3O)C2O)cc1O (some centres undefined) |
| -13% | CCCCOc1ccc(-c2ncc(C(=O)OCC)c(N)n2)cc1 |
| 5% | NC(=O)CC(NC(=O)c1ccccc1)C(=O)O (centres undefined) |
| 7% | Nc1cc(S(=O)(=O)N2CCOCC2)ccc1Oc1cccc(Br)c1 |
| -1% | O=c1c(=O)n(Cc2c(F)cccc2Cl)ccn1Cc1ccccc1 |
| -17% | Cc1ccc(-n2cccc2C(=O)NS(=O)(=O)c2ccc(C)cc2)cc1 |
| ? | COc1ccc(O[C@@H]2O[C@H](COC(C)=O)[C@@H](OC(C)=O)[C@H](OC(C)=O)[C@H]2NC(C)=O)cc1 |
| 0% | Cc1ccc2nc(/C(C#N)=C/c3ccc(-c4ccc(C(=O)OC(C)C)cc4)o3)[nH]c2c1 |
| 4% | Cc1nc(S(=O)(=O)Cc2ccc(Cl)cc2)nc2c1CCC2 |
| -3% | CCOc1ccccc1NC(=O)CCc1c(C)nc2cc(-c3ccccc3)nn2c1C |

Grouped by structure: the entries above with bromine.
| VDR inhibitor | SMILES |
| --- | --- |
| 11% | CSc1ncccc1C(=O)OCC(=O)c1cccc(Br)c1 |
| -12% | O=C(NC(Cc1c[nH]c2ccccc12)C(=O)N/N=C/c1ccc(Br)cc1)c1cccs1 (centres undefined) |
| 12% | COc1ccc(CNC(=O)c2cc(-c3ccc(C)cc3)nc3n[nH]c(-c4ccc(Br)cc4)c23)cc1 |
| 0% | CCN(CC)S(=O)(=O)c1cccc(NC(=O)COC(=O)c2ccc(Br)o2)c1 |
| 7% | Nc1cc(S(=O)(=O)N2CCOCC2)ccc1Oc1cccc(Br)c1 |

Records listed so far that bear a hit mark in VDR inhibitor.
| VDR inhibitor | SMILES |
| --- | --- |
| 7.1µM* | C=C1C(=O)[C@]23[C@H](O)[C@H]1CC[C@H]2[C@@]12COC3(O)[C@H](O)[C@@H]1C(C)(C)CC[C@@H]2O |

Next records follow:
| VDR inhibitor | SMILES |
| --- | --- |
| 17% | Cc1c2cnn(-c3ccccc3)c(=O)c2c(C)n1CCCC(=O)N1CCN(c2ncccn2)CC1 |
| -14% | Nc1nc(Nc2ccccc2F)nc(NCc2ccco2)c1[N+](=O)[O-] |
| -1% | Cc1cc2nc(-c3ccc4c(c3)CCC4)ccn2n1 |
| -4% | CCCc1ccc(OCC(=O)Nc2sc(C(=O)OCC)c(C)c2C(=O)OCC)cc1 |
| 2% | C/C(N)=C(/C#N)C(=O)CSc1nc2cc(Cl)ccc2c(=O)n1Cc1ccco1 |
| ? | CCc1c(C)[nH]c(=S)c(C#N)c1C |
| -11% | CCOc1ccc2nc(-c3ccccc3)nc(SCC(=O)OC)c2c1 |
| -7% | Cc1coc2c1c(C)cc1oc(=O)c(CC(=O)NCC(=O)NCC(=O)O)c(C)c12 |
| -12% | O=C(NCCCc1ccccc1)c1ccncc1 |
| 1% | COc1ccccc1-c1nnc2sc(COc3ccc(Cl)cc3)nn12 |
| 10% | O=C(Nc1ccc(-c2nc3cc(NC(=O)c4ccc(F)cc4)ccc3o2)cc1)c1ccc(F)cc1 |
| -9% | COc1ccccc1Cn1c(=S)[nH]c2ccc(Br)cc2c1=O |
| -14% | CC(=O)Nc1nnc2n1CCS2 |
| 27% | C=CCN(c1ccccc1)S(=O)(=O)c1cccc(C(=O)Nc2ncccc2O)c1 |
| 0% | COc1ccc(/C=N/NC(=O)c2ccc3nc[nH]c3c2)cc1OC |
| 4% | Cc1occc1C(=O)N1CCCC(CO)(Cc2ccc(F)cc2F)C1 (centres undefined) |
| -30% | COc1ccc(Nc2ccccc2N)cc1 |
| 8% | O=C(CCSc1nc(-c2ccco2)cc(C(F)(F)F)n1)N1CCN(c2ccccc2)CC1 |
| -10% | COc1ccc(C(=O)N(Cc2ccccc2)Cc2ccc(OC)c(COc3ccc(NC(C)=O)cc3)c2)cc1 |
| 2% | CC1(c2ccccc2Cl)NC(=O)N(CC(=O)NCc2ccco2)C1=O (centres undefined) |
| -15% | COc1ccc(S(=O)(=O)N2CCN(C(=O)c3cccnc3)CC2)cc1OC |
| 5% | CN(C)S(=O)(=O)N(CC(=O)Nc1ccccc1F)c1ccccc1 |
| 11% | Cc1ccc(O)c(-c2cc(C(=O)Nc3c(C)n(C)n(-c4ccccc4)c3=O)[nH]n2)c1 |
| 10% | Cc1csc(Sc2nc3c(c(=O)[nH]c(=O)n3C)n2Cc2ccccc2Cl)n1 |
| 22% | C[C@@H](C(=O)N1CCN(Cc2ccc3c(c2)OCO3)CC1)n1nnc2ccccc2c1=O |
| -8% | Cn1c(CNC(=O)c2ccc3c(c2)OCO3)nnc1SCC(=O)Nc1ccc(F)cc1F |
| -3%&10% | COc1cc(C(=O)N2CCOCC2)cc(OC)c1OC |
| -2% | Cc1ccc(NC(=S)N2CCN(Cc3ccc4c(c3)OCO4)CC2)c(C)c1 |
| 0% | CCOC(=O)Cn1c(=O)n(C2CCCCC2)c2nc(-c3cccc(F)c3)nc(C(N)=O)c21 |
| -11% | CCOC(=O)c1cc(NC(=O)SCC(=O)O)c(C)nc1C |
| 6% | CN(C(=O)COc1ccccc1)c1nnc(-c2cccnc2)s1 |
| -10%&3% | CCOC(=O)c1ccc(NC(=O)c2sc3nc4n(c(=O)c3c2C)CCC4)cc1 |
| 1% | COc1ccc(S(=O)(=O)Nc2ccc(F)cc2)c(C)c1C |
| -12% | Cc1ccc(N(CC(=O)NC2CC3CCC2C3)S(C)(=O)=O)cc1C (centres undefined) |
| 0% | CC[C@H](C)[C@H](NC(=O)c1ccc(Cl)cc1)C(=O)OCC(=O)c1ccc2c(c1)NC(=O)CO2 |
| -5% | O=C(/C=C/c1cccc([N+](=O)[O-])c1)NCc1ccccc1 |
| 25% | Cc1ccc(-c2nnc(Nc3ccc4c(c3)OCO4)c3ccccc23)cc1S(=O)(=O)NC(C)C |
| -3% | Cn1c(Oc2ccccc2)c(C=O)c2ccccc21 |
| -26% | S=C(Nc1cccc2ccccc12)Nc1cccc2ccccc12 |
| 20% | CCc1nn2c(N(C)CCO)cc(C)nc2c1-c1ccc(F)cc1 |
| -13% | CC(=O)Nc1ccc(S(=O)(=O)NCCC(=O)NCCc2ccc(F)cc2)cc1 |
| 0% | COc1ccc(Nc2nc(NCc3ccco3)nc(N/N=C/c3ccc(O)cc3)n2)cc1 |
| 9% | CCCCOc1ccc(C(=O)Nc2ccc(N3CCN(C)CC3)cc2)cc1 |
| -4% | CCN(CC)S(=O)(=O)c1ccc2c(c1)nc(CCC(=O)OCC(=O)Nc1cc(OC)cc(OC)c1)n2C |
| 0% | Cc1noc(C)c1CSCC(=O)N(C)CC(=O)Nc1ccc(F)cc1 |
| 10% | COc1ccc(NC(=O)c2c(C)nn(Cc3ccccc3)c2C)cc1S(=O)(=O)N(C)C |
| -15% | CCOC(=O)C(=NCCCN(C)C)NNc1cc(C(F)(F)F)ccc1Cl |
| 12% | CC1CN(C(=O)Nc2ccc(C(=O)NCCc3ccccc3Cl)cc2)c2ccccc2S1 (centres undefined) |
| -3% | COc1cccc(C2C(C(C)=O)=C(C)Nc3ncnn32)c1 (centres undefined) |
| -18% | Cc1ccc(C)c(Nc2nnc(-c3ccc(C)c(S(=O)(=O)N4CCN(C)CC4)c3)c3ccccc23)c1 |

Continued:
| VDR inhibitor | SMILES |
| --- | --- |
| -3% | Nc1nc(-c2ccc3c(c2)CCC(=O)N3)cs1 |
| 7% | CCc1c(C)nc(N)n2c(SCC(=O)NC3CCCCC3)nnc12 |
| -20% | CCS(=O)(=O)N1Cc2ccccc2CC1C(=O)Nc1nnc(C2CC2)s1 (centres undefined) |
| ? | CCc1ccc(S(=O)(=O)Nc2ccc(O)c3ccccc23)cc1 |
| -2% | Cc1noc(C)c1C(=O)OCC(=O)NC(c1ccccc1)c1ccccc1 |
| 3% | Cc1ccc(CNC(=O)CCC(=O)c2cccs2)cc1 |
| 5% | O=C(/C=C/c1ccccc1)NC(=S)NNC(=O)Cc1cccs1 |
